Screening data as filed in PubChem BioAssay.
MenB inh: Mtb MenB enzyme inhibition; AID 540299; P9WNP5; 100,000 compounds, 0.43% hits; MenB enzyme assay, absorbance read-out; some hits fall short of the stated cut; inhibition, %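 (about 12 µg/mL by stock and volumes)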;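 active = mean of two replicates above 30%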;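 also: 0% = no compound and 100% = wells with inactive enzyme; the first replicate is given; strong numbers were not always called active; inactives centre near -10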
Polio RdRp inh: inhibitors of poliovirus RNA polymerase binding and polymerization; poliovirus polymerase elongation, fluorescence polarization; hits give low values; P03300; 150,000 compounds, 0.66% hits; % elongation, % (compound at 16.7 µg/mL); in the data active = % elongation below about 90%; also: some results filed as inactive read as strong as hits
Target sequence (P03300 1749-2209 limits assumed): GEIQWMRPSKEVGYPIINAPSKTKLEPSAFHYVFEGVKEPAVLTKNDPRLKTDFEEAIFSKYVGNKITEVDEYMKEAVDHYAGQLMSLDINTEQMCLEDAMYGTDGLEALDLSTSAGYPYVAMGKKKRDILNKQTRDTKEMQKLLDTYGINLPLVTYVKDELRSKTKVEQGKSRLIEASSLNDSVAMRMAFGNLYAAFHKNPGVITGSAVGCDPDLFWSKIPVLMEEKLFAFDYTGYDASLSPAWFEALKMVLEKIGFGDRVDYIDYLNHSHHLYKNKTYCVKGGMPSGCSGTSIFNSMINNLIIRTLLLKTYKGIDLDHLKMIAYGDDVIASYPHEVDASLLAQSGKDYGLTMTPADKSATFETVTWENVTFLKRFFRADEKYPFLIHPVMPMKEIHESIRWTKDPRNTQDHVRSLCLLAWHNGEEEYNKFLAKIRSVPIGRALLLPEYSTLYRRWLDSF
MbtI inh: MbtI salicylate synthase inhibition; AID 493033; P9WFX0; inhibition, %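 (about 17 µg/mL by stock and volumes)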; purified MbtI enzyme, fluorescence intensity read-out; 100,000 compounds, 0.89% hits;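 active = above 50% in both replicates, above 80% if mildly self-fluorescent; inactive = the rest, strongly fluorescent compounds included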;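 also: 0% = mean of negative and 100% = mean of positive controls; one replicate is shown; some compounds called inactive have numbers as strong as hits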
Target sequence (P9WFX0 whole entry, looked up): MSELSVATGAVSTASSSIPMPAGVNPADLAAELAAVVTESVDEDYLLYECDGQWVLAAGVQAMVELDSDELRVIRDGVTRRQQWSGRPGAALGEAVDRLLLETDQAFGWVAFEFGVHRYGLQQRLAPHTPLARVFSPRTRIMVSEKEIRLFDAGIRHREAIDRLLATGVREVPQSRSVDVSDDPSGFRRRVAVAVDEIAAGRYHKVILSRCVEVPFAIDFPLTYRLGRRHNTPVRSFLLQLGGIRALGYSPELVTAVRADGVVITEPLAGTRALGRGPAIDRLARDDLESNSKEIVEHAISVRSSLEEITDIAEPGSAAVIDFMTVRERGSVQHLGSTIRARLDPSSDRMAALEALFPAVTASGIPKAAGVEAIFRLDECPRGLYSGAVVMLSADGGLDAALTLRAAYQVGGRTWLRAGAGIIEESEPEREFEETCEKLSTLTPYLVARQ
Polio RdRp inh intensity: further read-out of Polio RdRp inh, marked with its call; % elongation; measured here: total intensity read-out; formula for this scale not given here;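 total fluorescence in place of polarization; lower means less elongation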
An asterisk follows results filed as active; / = not tested or not shown.

Letter code: A = MenB inh; B = Polio RdRp inh; C = Polio RdRp inh intensity; D = MbtI inh
O=C(CN1C(=O)C2C3C=CC(C3)C2C1=O)N1CC=C(c2ccccc2)CC1 (stereo unspecified)
  A: 1; B: 100; C: 105; D: 1
CCC1(CC)N=C(c2ccccc2)C(=S)N1
  A: -42; B: 102; C: 102; D: 12
Cc1noc(C)c1CSc1ncccc1C(=O)Nc1ccnn1C(C)C1CC1 (stereo unspecified)
  A: -25; B: 106; C: 102; D: -13
C=CCNC(=O)c1scc2c1CCCC2
  A: -22; B: 107; C: 111; D: /
FC(F)(F)c1cc(N2CCC(n3cccc3)CC2)c2ccccc2n1
  A: -4; B: 106; C: 108; D: 12
COC(=O)c1ccc(-n2ncnc2-c2ccc(N(C)C)cc2)cc1
  A: -6; B: 102; C: 100; D: 12
COc1ccc(CN2C(=O)CC(Cc3ccc(C)cc3)C2=O)cc1OC (stereo unspecified)
  A: 6; B: 99; C: 106; D: -4
N=c1cc(C2(O)CCCCC2)n2c(nc3ccccc32)s1
  A: 0; B: 104; C: 96; D: /
CC(C)NC(=O)c1cnn2c(C(F)F)cc(-c3ccccc3)nc12
  A: -11; B: 100; C: 103; D: 7
Cc1cnn(C(=O)c2ccc(Br)o2)c1
  A: -19; B: 100; C: 103; D: -7
N/C(=N\NC(=O)c1ccccc1)c1cc2ccccc2oc1=O
  A: -4; B: 102; C: 101; D: -2
Cc1ccc(NC(=O)Nc2cccs2)c(Cl)c1
  A: -34; B: 105; C: 100; D: -1
O=C(NCCCN1CCOCC1)c1ccc(CN2C(=O)CCn3nccc32)cc1
  A: -10; B: 102; C: 103; D: -9
O=c1[nH]c2cc3c(cc2cc1CNCc1ccc2c(c1)OCO2)OCCO3
  A: -28; B: 103; C: 101; D: 88
CCN(CC)C(=O)CCc1nc2sc3c(c2c(=O)[nH]1)CCCC3
  A: -28; B: 101; C: 96; D: -1
COc1ccc(C2=N/C(=C\c3ccc(C)o3)C(=O)O2)c(Cl)c1
  A: -16; B: 100; C: 103; D: -92
CC1(c2ccc(F)cc2)CC(=O)c2cc(O)ccc2O1 (stereo unspecified)
  A: -7; B: 103; C: 105; D: 59
CC(C)C(C(=O)O)n1c(=S)[nH]c2ccccc2c1=O (stereo unspecified)
  A: -4; B: 97; C: 91; D: 16
COC(=O)c1cc(S(=O)(=O)NCC2CCN(CCc3cccs3)CC2)c[nH]1
  A: 18; B: 100; C: 97; D: 16
N/N=C1\C(=N/O)CCc2nonc21
  A: -2; B: 105; C: 102; D: 3
Cc1ccc(NC(=O)CCc2nc3ccccc3c(=O)[nH]2)cc1
  A: -20; B: 98; C: 94; D: 6
CC(=O)NC(Cc1ccc(O)cc1)C(=O)NN (stereo unspecified)
  A: 9; B: 99; C: 90; D: 15
CC(C)CN(CC(C)C)C(=O)c1noc2c1CC(C)CC2 (stereo unspecified)
  A: -17; B: 101; C: 102; D: -11
CC(=O)CC(c1ccccc1)c1c(O)c2ccccc2oc1=O (stereo unspecified)
  A: -9; B: 103; C: 102; D: -46
Cc1ccc(C(=O)OCC(=O)NCc2ccc3c(c2)OCO3)cc1S(=O)(=O)N1CCOCC1
  A: -30; B: 105; C: 111; D: -6
O=C1CCN(Cc2ccccc2)C(=O)N1c1ccccc1
  A: 19; B: 103; C: 104; D: -14
N#Cc1c2n(cnc1=O)CCCCC2
  A: -60; B: 100; C: 101; D: -3
CC1CN(c2nn3c(=O)c4ccccc4nc3c3ccccc23)CC(C)O1 (stereo unspecified)
  A: -8; B: 102; C: 100; D: 4
CNC(=O)N(C1=NCCCCC1)c1ccc(C)cc1
  A: -12; B: 96; C: 102; D: -9
Cc1nnc(COc2ccccc2C#N)o1
  A: -11; B: 102; C: 101; D: -9
COc1ccc(/C=C/C(O)=C(\C#N)c2nnc(N3CCOCC3)n2-c2ccccc2)cc1OC
  A: 2; B: 100; C: 99; D: 15
CC(C)CCNS(=O)(=O)c1ccc2[nH]c3c(c2c1)CCCC3
  A: -20; B: 101; C: 105; D: 37
COc1cccc(CNCCCN2CCOCC2)c1OCc1ccc(F)cc1
  A: -19; B: 100; C: 102; D: -1
COc1ccccc1C(=O)Nc1ccc(C)cc1C
  A: -3; B: 101; C: 105; D: /
Cc1cccc(CN2CCN(CC(=O)NC3CCCCCC3)C2=O)c1
  A: 9; B: 98; C: 104; D: -4
CC(C)(Oc1ccc(Cl)cc1)C(=O)Nc1nnc(C(F)(F)F)s1
  A: -5; B: 101; C: 100; D: 7
O=C(COC(=O)c1cccnc1Cl)c1ccccc1Br
  A: /; B: 102; C: 106; D: -7
O=C(NCc1ccco1)NC(=O)c1ccccc1
  A: -24; B: 100; C: 103; D: 3
Oc1ccc(Br)cc1C=Nc1cc2c(cc1Br)OCCO2
  A: -9; B: 106; C: 111; D: 2
O=C(CCCCCN1C(=O)C2C3C=CC(C3)C2C1=O)Nc1ccc2ncccc2c1 (stereo unspecified)
  A: -10; B: 101; C: 101; D: 27
Cn1ncc2c(NCC3CCCO3)ncnc21 (stereo unspecified)
  A: -10; B: 104; C: 99; D: -7
Cc1nc2ccccc2c(=O)n1-c1nc2ccccc2n1C
  A: -4; B: 100; C: 101; D: /
CCn1nc(C(=O)N(C)Cc2ccc(OC(F)F)cc2)c2ccccc2c1=O
  A: -13; B: 106; C: 110; D: -7
Cc1ccc(OC(=O)CCC(=O)N2CCc3ccccc32)cc1
  A: -6; B: 104; C: 101; D: -8
COc1ccc(-c2ccc(CCC(=O)O)n2C(C)C)cc1
  A: -13; B: 104; C: 111; D: /
O=c1[nH]c(CN2CCN(S(=O)(=O)c3ccccc3C(F)(F)F)CC2)nc2scc(-c3cccs3)c12
  A: -12; B: 108; C: 111; D: 6
COC(=O)Cn1[nH]c(=O)c2ccccc2c1=O
  A: 16; B: 98; C: 105; D: -17
Cc1cc(C)c(NC(=O)CS(=O)CC(=O)N2CCN(c3ccccc3)CC2)c(C)c1 (stereo unspecified)
  A: -5; B: 102; C: 103; D: 18
COC(=O)c1ccc(CSc2ccccc2C)o1
  A: -19; B: 102; C: 104; D: 9
CNCC(O)COc1ccccc1 (stereo unspecified)
  A: -5; B: 105; C: 105; D: -23
Cn1cccc1C(=O)Nc1cccc(C(F)(F)F)c1
  A: 0; B: 101; C: 103; D: 3
Cc1ccc2nc(NC(=O)C3CC(O)CN3C(=O)Oc3ccccc3)sc2c1 (stereo unspecified)
  A: -19; B: 105; C: 111; D: /
CCN(CC)c1nc(N2CCOCC2)nc2ccccc12
  A: 25; B: 100; C: 99; D: 78
CCN1C(=O)c2cccc3c(S(=O)(=O)Nc4ccccc4)ccc1c23
  A: -21; B: 103; C: 108; D: -1
N#CC1=C(c2ccccc2)C(c2ccccc2)OC1=O (stereo unspecified)
  A: -53; B: 100; C: 103; D: -50
Clc1ccc(CSc2nnc(COc3ccccc3)o2)cc1
  A: 1; B: 100; C: 102; D: -1
Nc1nc(CSc2nc3ccccc3s2)nc(Nc2ccccc2)n1
  A: -12; B: 104; C: 104; D: /
Cc1nn(C)c(C)c1Nc1cnn(-c2ccccc2)c(=O)c1Cl
  A: -8; B: 101; C: 95; D: 16
Cc1csc(Nc2ccc(Cl)cc2)n1
  A: -13; B: 98; C: 101; D: 63*
O=C(Oc1ccc(C=Nc2ccc(F)c(F)c2F)cc1)c1cccnc1
  A: /; B: 101; C: 105; D: -5

The listing continues:
Letter code: A = MenB inh; B = Polio RdRp inh; C = Polio RdRp inh intensity; D = MbtI inh
CC1=C(O)C(=O)C(/C=N/NC(N)=O)C1 (stereo unspecified)
  A: -98; B: 104; C: 102; D: 48
Cc1ccc(C(=O)C2Sc3nnc(C)n3NC2c2ccc(Cl)cc2)cc1 (stereo unspecified)
  A: -45; B: 100; C: 100; D: 7
CCN(C(=O)CSc1nc2ccccc2n1CCC#N)C1=CCCC1
  A: 0; B: 100; C: 110; D: -10
NC12CC3CC(C1)CC(c1ccccc1)(C3)C2
  A: /; B: 102; C: 106; D: -2
CCCN1CCN(C(=O)C2COc3ccccc3O2)CC1 (stereo unspecified)
  A: -12; B: 102; C: 105; D: -13
CCc1ccc(Cn2ncc3c(C(=O)O)cc(C)nc32)cc1
  A: 6; B: 98; C: 92; D: -35
CCOC(=O)c1c(/N=c2\oc3ccc4ccccc4c3cc2C(N)=O)sc2c1CCCC2
  A: -6; B: 102; C: 106; D: 26
O=C(Cc1ccccc1)NN1C(=O)c2ccccc2C1=O
  A: -2; B: 98; C: 104; D: -5
Cc1nc2ccccn2c1C(=O)NC1CCCC1
  A: 32; B: 102; C: 101; D: -60
CC(C)(C)c1ccc(NC(=O)c2cnccn2)cc1
  A: 12; B: 106; C: 104; D: -9
CC(C)(C)n1nnnc1C(c1ccc2ncccc2c1)N1CCc2ccccc21 (stereo unspecified)
  A: -1; B: 103; C: 101; D: -1
COC(=O)c1ccc(-c2ccco2)n1CC(=O)NCCN1CCN(C)CC1
  A: 8; B: 102; C: 103; D: -3
CCOC(=O)C1=C(c2ccccc2)N2CCS(=O)(=O)N=C2S1
  A: -26; B: 102; C: 111; D: -6
O=C(Cn1c(=O)n(-c2ccccc2)c(=O)c2cc(-c3ccccc3)sc21)c1cccs1
  A: 7; B: 107; C: 105; D: 11
Cc1[nH]c2ccccc2c1/C=N/NC(=O)CN1CCSCC1
  A: -5; B: 101; C: 103; D: 4

One compound at a time (already shown).
`O=C(CN1C(=O)C2C3C=CC(C3)C2C1=O)N1CC=C(c2ccccc2)CC1` (stereo unspecified) as listed: MenB inh: 1; Polio RdRp inh: 100; Polio RdRp inh intensity: 105; MbtI inh: 1
`CCN(C(=O)CSc1nc2ccccc2n1CCC#N)C1=CCCC1` as listed: MenB inh: 0; Polio RdRp inh: 100; Polio RdRp inh intensity: 110; MbtI inh: -10

Later entries:
Letter code: A = MenB inh; B = Polio RdRp inh; C = Polio RdRp inh intensity; D = MbtI inh
O=C(Nc1ccccc1)N1CCCN(c2nccc(C(F)(F)F)n2)CC1
  A: -3; B: 103; C: 101; D: 7
CCOc1ccc2nc(SCC(=O)O)c(C)cc2c1
  A: -29; B: 101; C: 100; D: -46
CC1CC(C)CN(C(=O)CSc2nnc(-c3ccc4c(c3)OCO4)n2-c2ccccc2)C1 (stereo unspecified)
  A: -8; B: 105; C: 108; D: -13
CC1C2CC(C/C2=N/O)C1(C)C (stereo unspecified)
  A: -6; B: 100; C: 101; D: 9
N#CCCN1CCN(Cc2ccccc2)CCC1=O
  A: 7; B: 105; C: 106; D: 1
O=C(Nc1ccc(F)cc1)c1c(Cl)nc2ccccn12
  A: /; B: 103; C: 107; D: 1
CCCN(CCC)c1ccc(/C=N/NC(=O)OCC)cc1
  A: -92; B: 100; C: 98; D: -273
C=CCSc1nc(N)c(C(=O)Nc2ccccc2)cc1C(N)=O
  A: 13; B: 105; C: 109; D: 24
CCC(C)(C)NS(=O)(=O)c1ccccc1OC
  A: -3; B: 97; C: 94; D: -52

19 entries already listed, arranged by formula weight, smallest number first:
Letter code: A = MenB inh; B = Polio RdRp inh; C = Polio RdRp inh intensity; D = MbtI inh
CNCC(O)COc1ccccc1 (stereo unspecified)
  A: -5; B: 105; C: 105; D: -23
CC1=C(O)C(=O)C(/C=N/NC(N)=O)C1 (stereo unspecified)
  A: -98; B: 104; C: 102; D: 48
CC(=O)NC(Cc1ccc(O)cc1)C(=O)NN (stereo unspecified)
  A: 9; B: 99; C: 90; D: 15
CC1(c2ccc(F)cc2)CC(=O)c2cc(O)ccc2O1 (stereo unspecified)
  A: -7; B: 103; C: 105; D: 59
O=C1CCN(Cc2ccccc2)C(=O)N1c1ccccc1
  A: 19; B: 103; C: 104; D: -14
COc1ccc(-c2ccc(CCC(=O)O)n2C(C)C)cc1
  A: -13; B: 104; C: 111; D: /
CC(C)CN(CC(C)C)C(=O)c1noc2c1CC(C)CC2 (stereo unspecified)
  A: -17; B: 101; C: 102; D: -11
CCc1ccc(Cn2ncc3c(C(=O)O)cc(C)nc32)cc1
  A: 6; B: 98; C: 92; D: -35
Cc1ccc(NC(=O)CCc2nc3ccccc3c(=O)[nH]2)cc1
  A: -20; B: 98; C: 94; D: 6
Cc1ccc(OC(=O)CCC(=O)N2CCc3ccccc32)cc1
  A: -6; B: 104; C: 101; D: -8
Cc1[nH]c2ccccc2c1/C=N/NC(=O)CN1CCSCC1
  A: -5; B: 101; C: 103; D: 4
Cc1nn(C)c(C)c1Nc1cnn(-c2ccccc2)c(=O)c1Cl
  A: -8; B: 101; C: 95; D: 16
FC(F)(F)c1cc(N2CCC(n3cccc3)CC2)c2ccccc2n1
  A: -4; B: 106; C: 108; D: 12
CCN(C(=O)CSc1nc2ccccc2n1CCC#N)C1=CCCC1
  A: 0; B: 100; C: 110; D: -10
O=C(Oc1ccc(C=Nc2ccc(F)c(F)c2F)cc1)c1cccnc1
  A: /; B: 101; C: 105; D: -5
O=C(NCCCN1CCOCC1)c1ccc(CN2C(=O)CCn3nccc32)cc1
  A: -10; B: 102; C: 103; D: -9
COC(=O)c1cc(S(=O)(=O)NCC2CCN(CCc3cccs3)CC2)c[nH]1
  A: 18; B: 100; C: 97; D: 16
Oc1ccc(Br)cc1C=Nc1cc2c(cc1Br)OCCO2
  A: -9; B: 106; C: 111; D: 2
Cc1ccc(C(=O)OCC(=O)NCc2ccc3c(c2)OCO3)cc1S(=O)(=O)N1CCOCC1
  A: -30; B: 105; C: 111; D: -6
